# Source: PubChem BioAssay
# YjeE inh – qHTS Assay for Inhibitors of YjeE. tRNA threonylcarbamoyladenosine biosynthesis protein TsaE (Escherichia coli (strain …. 71,000 compounds, 0.05% hits. AID 605, 2007. purified YjeE, fluorescence polarisation of a bound ADP probe. Potency, µM; active = well fitted falling curve; inconclusive = weaker or top-dose-only fall, or a rising curve; inactive = flat or poorly fitted curve;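 further: top concentration of the series not given in the record; excess ADP was the control for the full effect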
#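 Fluorescence polarization of a BODIPY Texas Red–ADP probe (2 uM) bound to purified YjeE (10 uM) was read after 15 min room-temperature incubation with compounds. Loss of polarization marks inhibitors; ADP serves as titrated control.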
# PK Bst – Pyruvate Kinase. partly purified Bacillus stearothermophilus pyruvate kinase, luminescence ATP production; ribose 5-phosphate activator present at AC10. Potency, µM. 51,000 compounds, 1.2% hits. AID 361, 2006; in the data active means potency below about 11 µM; inconclusive means mostly about 12 µM to 25 µM; inactive means weaker than that;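 the screen sought inhibitors and activators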;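 further: potency means the concentration at half of the fitted maximal effect; scaled between full activation by ribose 5 phosphate and full inhibition by luteolin; about four in five hits inhibit and the cells do not say which; series up to 57 µM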
# * = called active by the depositor; i = inactive; u = inconclusive; x = no result given. This is a subset. The share of hits here may be higher or lower than overall.
# Second line of a record – YjeE inh, PK Bst
CCOC(=O)c1[nH]c2ccc(Br)cc2c1NC(=O)CCN1CCCCC1
 : i, x
CCOc1ccc(OCC)c(NC(=O)CN2CCC(NC(=O)c3cccc(F)c3)CC2)c1
 : i, x
O=C(CSc1nnc(Cc2ccccc2)o1)N1CCCc2ccccc21
 : i, >57
Cc1ccc(-n2c3c(cc(C(=O)NC4CCSC4=O)c2=O)C(=O)CC(C)(C)C3)cc1 (stereo not drawn)
 : i, x
O=C(Nc1cccc(F)c1)N1CC[C@@]2(CCCN(C(=O)c3csnn3)C2)C1
 : i, x
Cc1ccc(C2c3c(oc4cc(C)c(C)cc4c3=O)C(=O)N2CCCN2CCOCC2)cc1 (stereo not drawn)
 : i, x
O=C(NCc1cccnc1)C1CCN(S(=O)(=O)c2cccnc2)CC1
 : i, >57
NC(=O)[C@@H]1CCCNC1
 : i, x
COc1ccccc1Oc1ccc(S(=O)(=O)N2CCCC2)cc1
 : i, >57
CN(C)CCNc1nc(-c2ccco2)c2c(c1C#N)CC(C)(C)OC2
 : x, >26
COc1ccc(C(C(=O)NC2CCCC2)N2CCc3ccccc32)cc1 (stereo not drawn)
 : i, x
CC(=O)N1C2(C=CC1(C)C(=O)NCc1cc(F)cc(C(F)(F)F)c1)CCCCC2 (stereo not drawn)
 : i, x
CCOc1ccccc1N(C(=O)CNC(=O)c1ccco1)C(C(=O)NC1CCCC1)c1cccnc1 (stereo not drawn)
 : i, >57
CCCCCCN(C(=O)CCCCCN1C(=O)NC(c2ccc(-c3ccccc3)cc2)C(C(=O)OCc2ccccc2)=C1C)C(C)C(=O)NCCCC (stereo not drawn)
 : i, x
CC1=CS/C(=C(/C#N)C(=O)N2CCCCC2)N1c1ccccc1
 : i, x
COc1ccc(/C(O)=C2/C(=O)C(=O)N(CCN(C)C)C2c2ccc(C)cc2)cc1Cl (stereo not drawn)
 : i, >57
O=C(Cn1cc(C(=O)COc2ccccc2)c2ccccc21)NCc1ccco1
 : i, >57
N#CC1=C2SCN(Cc3ccco3)CN2C(=O)CC1c1c(F)cccc1Cl (stereo not drawn)
 : i, x
CC(C)(C)NC(=O)C(Cc1ccccc1)NS(=O)(=O)c1ccc2c(c1)CCC(=O)N2 (stereo not drawn)
 : i, >57
CS(=O)(=O)N1CCc2cc(C(=O)O)ccc21
 : i, >57
CCOc1ccc(N2C(=O)CC(N3CCC(NC(=O)Nc4ccccc4)CC3)C2=O)cc1 (stereo not drawn)
 : i, >57
O=C1CC(c2ccco2)CC(O)=C1C=NCC1CCNCC1 (stereo not drawn)
 : i, x
Cn1cccc1Cc1nnc(SCC(=O)NCc2ccco2)n1CCc1ccccc1
 : i, >57
O=C(C(c1ccccc1)c1ccccc1)N1CCOCC1
 : i, x
CCOC(=O)c1cc2c(=O)n3cccc(C)c3nc2n(Cc2ccccc2Cl)c1=N
 : i, >57
CC(Cc1ccccc1)C(=O)NCCc1c[nH]c2ccccc12 (stereo not drawn)
 : i, x
CCOc1ccc(N2CC(C(=O)NCc3cccc(C)c3)CC2=O)cc1 (stereo not drawn)
 : i, >57
O=c1c2ccccc2nnn1CSc1nnc(COc2ccc(Cl)cc2)n1Cc1ccco1
 : i, >57
Cc1ccccc1C1CC(=O)NC2=C1C(=O)CCC2 (stereo not drawn)
 : i, >57
CCOC(=O)C1(C(=O)OCC)C(c2ccccc2)CC(O)N1C(C)=O (stereo not drawn)
 : x, >26
CC(=O)c1ccc(NC2c3ncccc3C(=O)N2Cc2ccc(F)cc2)cc1 (stereo not drawn)
 : i, >57
COC(=O)c1ccc(C(NC(=O)OCc2ccccc2)/C(=C/[C@@H](C)C(=O)NCc2nc3ccccc3n2C)c2cccnc2)cc1 (stereo partly drawn)
 : i, x
O=C1C2C3CCCC3=C3CCCC3C2C(=O)N1c1cccc(Cl)c1 (stereo not drawn)
 : i, x
COc1cc(N2CCOCC2)ncn1
 : i, >57
O=C(CSc1nc2ccccc2[nH]1)N1CCN(c2ccc(F)cc2)CC1
 : i, >57
Fc1ccccc1N1CCN(C(c2cccs2)c2nnnn2CCc2ccccc2)CC1 (stereo not drawn)
 : i, >57
Cc1cc(COc2ccccc2OCCN2CCN(C)CC2)no1
 : x, >26
CCOC(=O)Cn1nnnc1C(CC)N(Cc1cc2c(C)cc(C)cc2[nH]c1=O)C1CCCC1 (stereo not drawn)
 : i, >57
CCn1c(COc2ccccc2OC)nnc1SCC#N
 : i, >57
COc1cc(C(=O)OCC(=O)Nc2ccc3c(c2)OC(F)(F)O3)ccc1OCc1c(C)noc1C
 : i, >57
COCC(=O)N(Cc1ccccc1)c1ccccn1
 : i, >57
Cc1cnc(C(=O)OCC(=O)Nc2ccc(Oc3ccccc3)cc2)cn1
 : i, >57
CN(C)S(=O)(=O)N1CCN(c2ccc(Cl)cc2)CC1
 : i, >57
O=C(NC(=O)c1ccccc1)NC1(C(F)(F)F)OCCO1
 : i, >57
O=C(NCc1ccco1)c1ccc2c(c1)N(Cc1ccccc1)C(=O)CS2=O (stereo not drawn)
 : i, x
CC(C)NC(=O)Cn1cc(C#N)c2cc(Br)ccc21
 : i, >57
O=C(NCc1ccc2c(c1)OCO2)C1CCCN1C(=O)Nc1cccc(F)c1 (stereo not drawn)
 : i, >57
CC(=O)OCCNc1cc(N2CCN(C)CC2)c2noc3c2c1C(=O)c1ccccc1-3
 : i, x
COc1ccc(-c2nnc(CSc3nc4ccccc4c(=O)n3C)o2)cc1OC
 : i, >57
COc1ccc(S(=O)(=O)N2CCN(C(=O)CCC3CCCC3)CC2)cc1
 : i, >57
CCOC(=O)C1=C(O)C(Nc2nccs2)(C(F)(F)F)N=C1C (stereo not drawn)
 : i, >57
Cc1cc(NC(=O)CSc2nc3ccccc3c(=O)n2Cc2ccc(F)cc2)no1
 : i, >57
Cc1cc(=O)n2nc(N3CCCC3C(=O)NCCCN3CC(C)CC(C)C3)sc2n1 (stereo not drawn)
 : i, >57
COC(=O)c1ccc(S(=O)(=O)c2ccc(C(=O)OC)s2)s1
 : i, x
CCN(CC)c1ccc(NC(=O)c2cc(OC)cc(OC)c2)c(C)c1
 : i, >57
O=[N+]([O-])c1ccc(CS(=O)Cc2ccccc2)cc1 (stereo not drawn)
 : i, x
NC(=S)c1ccc(C(N)=S)o1
 : i, x
O=C(COC(=O)c1ccc(S(=O)(=O)NCc2ccco2)cc1)NCCC1=CCCCC1
 : i, >57
COc1cc(S(=O)(=O)N2CCN3CCCC3C2)ccc1-n1cnnn1 (stereo not drawn)
 : i, >57
O=C(O)CCn1c(C2CCCCC2)nc2ccccc21
 : i, >57

# Compound profiles, from the list above. Order of values: YjeE inh, PK Bst
# `Cc1cc(COc2ccccc2OCCN2CCN(C)CC2)no1` across the screens: x, >26
# `O=C(NCc1ccc2c(c1)OCO2)C1CCCN1C(=O)Nc1cccc(F)c1` (stereo not drawn) across the screens: i, >57
# `Cc1cnc(C(=O)OCC(=O)Nc2ccc(Oc3ccccc3)cc2)cn1` across the screens: i, >57
# `CCOc1ccc(N2CC(C(=O)NCc3cccc(C)c3)CC2=O)cc1` (stereo not drawn) across the screens: i, >57
# `NC(=S)c1ccc(C(N)=S)o1` across the screens: i, x

# Later entries:
# Second line of a record – YjeE inh, PK Bst
COC(=O)[C@@]1(Cc2ccc(F)cc2)[C@H]2c3cc(C(=O)N(C)C)n(CCc4ccc(OC)c(Br)c4)c3C[C@H]2CN1C(=O)c1ccccc1
 : i, x
CCCCC(CC)CNS(=O)(=O)c1ccc2c(c1)CCN2C(=O)CCC(=O)O (stereo not drawn)
 : i, >57
CCCCn1c(=O)c(-c2ccccc2)c(O)c2ccccc21
 : i, >57
CCOC(=O)c1[nH]c2c(c1C)C(=O)CC(c1ccc(OC)c(OC)c1)C2 (stereo not drawn)
 : i, >57
Cc1cc(=O)oc2cc(OCCSCCN3CCOCC3)ccc12
 : x, >26
COC(=O)[C@H]1C[C@@H]1[C@H](NC(=O)c1ccccc1)c1ccccc1
 : i, x
CCn1c(N)c(C(=O)N2CCOCC2)sc1=S
 : i, >57
O=C(CSc1nnc(-c2ccccc2)n1Cc1ccco1)Nc1ccc2c(c1)OCCO2
 : i, >57
CN1CCN(C(=O)N2c3ccccc3C=Cc3ccccc32)CC1
 : i, x
COc1ccc(Oc2ncc3ncc(=O)n(CCC#N)c3n2)cc1
 : i, x
O=c1oc2ccccc2n1CSC1=NCCS1
 : i, >57
COCCn1nnnc1CN1C2CCCC1CC(NC(C)=O)C2 (stereo not drawn)
 : i, >57
C=CCn1c(CCNC(=O)c2ccccc2F)nnc1SCC(=O)Nc1nc(C)cs1
 : i, >57
C=CCOc1cccc(C2/C(=C(/O)c3ccc(C)cc3)C(=O)C(=O)N2CCN2CCOCC2)c1 (stereo not drawn)
 : i, >57
CCC(=O)N1CCc2cc(S(=O)(=O)NCCN3CCCCC3CC)ccc21 (stereo not drawn)
 : i, >57
O=C(CCC(=O)c1cccs1)Nc1ccccc1F
 : i, >57
O=C1C(=O)N(CCCn2ccnc2)C(c2cccnc2)/C1=C(/O)c1ccc(Cl)cc1 (stereo not drawn)
 : i, x
CCOc1ccccc1N1CCN(C(=O)Nc2cccc(Cl)c2)CC1
 : i, >57
COc1ccccc1-c1nccc(N2CCN(C)CC2)n1
 : i, x
CN(C)c1ccc(-c2nc(NC3CCNCC3)c3ccccc3n2)cc1
 : i, x

# Additional entries:
SMILES | YjeE inh | PK Bst
CC(Nc1nc(N2CCN(S(C)(=O)=O)CC2)nc2ccccc12)c1ccccc1 (stereo not drawn) | i | >57
CC(C)(C)OC(=O)N1CC2Cc3[nH]c(=O)ccc3C(C2)C1 (stereo not drawn) | i | >57
C=CCSc1nc2ccccc2c(=O)[nH]1 | i | x
Cc1cccc(-n2ccnc2SCC(=O)Nc2ccc3c(c2)OCCO3)c1 | i | >57
Cc1cc(C)n(-c2nnc(C)n2/N=C/c2ccccc2F)n1 | x | >26
O=C(c1ccc(F)cc1)c1cc2ccccc2o1 | i | x
CCc1cc2c(NCC3CCCO3)ncnc2s1 (stereo not drawn) | i | >11
COc1ccccc1C1CC(c2ccc(F)cc2)Nc2ncnn21 (stereo not drawn) | i | >57
CCN(CC)C(=O)C1CCCN(Cc2ccc(F)c(F)c2)C1 (stereo not drawn) | i | >57
Cc1cc(S(=O)(=O)N(Cc2ccc3c(c2)OCO3)CC2CCCO2)ccc1-n1cnnn1 (stereo not drawn) | i | >57
CC(C)CCOc1ccc(C(=O)O)cc1 | i | >57
COC(=O)C1CCCN1C(=O)C1CCCN1C(=O)CNC(=O)OCc1ccccc1 (stereo not drawn) | i | >57
O=C(CSc1nnnn1-c1ccc2c(c1)OCO2)NCc1ccccc1 | i | >57
FC(F)(F)c1ccccc1Cl | i | x
COC(=O)CN(c1c(C)cccc1C)S(C)(=O)=O | i | >57
COc1ccc(C(=O)Nc2cc(OC)cc(OC)c2)cc1 | i | x
COc1ccccc1N1CCN(CC(O)c2ccc3cc[nH]c3c2)CC1 (stereo not drawn) | i | x
O=C(O)/C=C(/C(=O)O)[C@]12CCN3CC4=CCO[C@@H]5CC(=O)N[C@@H]1[C@H]5[C@H]4C[C@H]32 | i | x
COc1ccc2c(c1)-c1ccccc1S(=O)(=O)N2C(C)=O | i | >57
Cc1ccc2nc(-c3ccccn3)oc2c1 | i | 6.9*
C/C(=N\O)C(=O)NCCCNCCCN(C)C | x | >26
CC(=O)Nc1ccc(S(=O)(=O)N2CCCCC2c2cccnc2)cc1 (stereo not drawn) | i | >57
Cc1nn(C(=O)C(C)N2C(=O)c3ccccc3C2=O)c(C)c1Br (stereo not drawn) | i | x
COc1cccc(Oc2ccc(N)cc2)c1 | i | >57
O=S(=O)(Nc1cccc(C(F)(F)F)c1)c1cnc[nH]1 | i | >57
COCC(=O)Nc1ccccc1NC(C)=O | i | >57
C(=N\n1cnnc1)/c1ccc(N2CCOCC2)cc1 | i | x
O=C1CC(C(=O)Nc2ccccc2)N=C(N2CCCCC2)N1 (stereo not drawn) | i | >57
O=C(C1CC2CCC1C2)N1CCN(Cc2ccc3c(c2)OCO3)CC1 (stereo not drawn) | i | >57
COc1ccc(CC(=O)N2CCCc3ccccc32)cc1OC | i | >57
CC(=O)Nc1cc(C(F)(F)F)ccc1N1CCOCC1 | i | >57
CCOC(=O)CSc1nccc(N(C)C)c1C#N | i | x
COC(=O)c1cc(Br)c(=O)n(CCC2=CCCCC2)c1 | i | >57
CCn1cnc2sc(-c3ccccc3)cc2c1=O | i | u
CCC(CC)C(=O)Nc1cccc(C(=O)Nc2ccc3c(c2)OCO3)c1 | i | >57
Cn1c(C(=O)NCCCN2CCN(c3ccccc3F)CC2)cc2c(=O)n(C)c3ccccc3c21 | i | x
CCOC(=O)CNC(=O)CSc1nnc(-c2ccco2)n1N | i | >57
CCOC(=O)c1ccc(S(=O)(=O)N2CCN(CCC#N)CC2)cc1 | i | x
COC(=O)c1ccc(NC(=O)CSc2nnc(CNc3ccc(F)cc3)n2C)cc1 | i | >57
O=C(CSc1nnc(-c2ccco2)n1Cc1ccccc1)c1ccccc1 | i | >57
COc1ccc(-n2c(Cc3cccn3C)nnc2SCC(=O)Nc2ccc(Cl)cc2)cc1 | i | x
COc1ccc(S(=O)(=O)N(C)CC(=O)Nc2ccccc2OC)cc1C | i | >57
COCc1cc(=O)[nH]c(Nc2nc3ccccc3o2)n1 | x | >26

# Three compounds from above, arranged by length of the SMILES, ascending.
SMILES | YjeE inh | PK Bst
CCOC(=O)CSc1nccc(N(C)C)c1C#N | i | x
CCOC(=O)CNC(=O)CSc1nnc(-c2ccco2)n1N | i | >57
CCC(CC)C(=O)Nc1cccc(C(=O)Nc2ccc3c(c2)OCO3)c1 | i | >57
